Screening data from PubChem BioAssay.
CBX7 AlphaScr – blocks human CBX7 binding to H3K27me3 peptide | AlphaScreen His6-CBX7 / biotin-H3K27me3 peptide binding; active compounds read low | normalised signal (fraction of DMSO) (concentration not given with the values) | actives 1.1% (n = 66,000) | AID 1224903; in the data active means normalised signal below about 0.5;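 further: 100 nL library stock added to about 20 µL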
Target sequence (O95931 whole entry, looked up): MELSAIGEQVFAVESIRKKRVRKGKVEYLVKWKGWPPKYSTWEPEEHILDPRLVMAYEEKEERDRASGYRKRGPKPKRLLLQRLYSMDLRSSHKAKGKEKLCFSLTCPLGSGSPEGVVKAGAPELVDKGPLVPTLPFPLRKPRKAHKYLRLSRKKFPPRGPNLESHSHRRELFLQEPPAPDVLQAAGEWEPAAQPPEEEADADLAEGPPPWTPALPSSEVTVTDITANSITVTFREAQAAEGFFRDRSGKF
CBX7 AlphaScr z-score – second read-out of CBX7 AlphaScr, no call of its own (marks repeat the call); z-score; measured here: z-score of CBX7 signal; some inactives read as strong as hits; reference of the scale not given here;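 same signal on another scale; lower means less binding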
* marks the source's active call; other numbers are inactive results; & = joins results of further samples.

SMILES	CBX7 AlphaScr	CBX7 AlphaScr z-score
O=C(NCCc1nc2ccccc2[nH]1)c1ccccc1Br	0.9	-1.1
Cn1cnc(S(=O)(=O)N2CCc3ccccc32)c1	1.1	1.9
CC(=O)N1CCc2cc(S(=O)(=O)N3CCN(c4ccccc4F)CC3)ccc21	0.89	-0.45
COc1ccc(C(=O)Nc2ccc3nc(N4CCN(C)CC4)cc(C)c3c2)cc1OC	1	0.35
CCOCCCNC(=O)c1ccc2c(c1)N(C)C(=O)c1ccccc1S2	0.99	-0.11
CCCOc1ccc(N2C(=O)CC(N3CCCCC3)C2=O)cc1 (stereo not given)	0.87	-1.7
COc1ccc(-c2nc(S(=O)(=O)c3ccccc3)c(N3CCOCC3)o2)cc1	1.1	1.3
COc1ccc2cc(CCNC(=O)C3(c4ccc(Cl)cc4)CCCC3)c(=O)[nH]c2c1	0.98	-0.54
Cc1c(CNC(=O)c2cc(-c3ccc4c(c3)OCO4)nc3ccccc23)cnn1C	1.1	1.8
COc1ccc(-c2nn(C)c3sc(C(=O)NCc4ccccn4)cc23)cc1OC	1	0.78
Cc1ccc(N2CCN(C(=O)c3cc4c(s3)-c3c(C)cccc3OC4)CC2C)cc1 (stereo not given)	1	1.2
O=C(Nc1nc(-c2ccc(Cl)cc2)cs1)c1ccc(S(=O)(=O)N2CCc3ccccc32)cc1	1.1	0.51
Cc1nn(-c2ccccc2)c(Cl)c1C(=O)Nc1ccc(C2CCCCC2)cc1	1.1	1.3
CC(C(=O)c1ccccc1)C1(O)C(=O)N(C)c2ccccc21 (stereo not given)	1	0.52
O=C(CCc1nc2ccccc2n(Cc2c(F)cccc2Cl)c1=O)NCc1ccccc1Cl	1	0.3

Part of the list above, with each value named.
compound: COc1ccc(C(=O)Nc2ccc3nc(N4CCN(C)CC4)cc(C)c3c2)cc1OC
- CBX7 AlphaScr: 1
- CBX7 AlphaScr z-score: 0.35
compound: COc1ccc(-c2nc(S(=O)(=O)c3ccccc3)c(N3CCOCC3)o2)cc1
- CBX7 AlphaScr: 1.1
- CBX7 AlphaScr z-score: 1.3
compound: O=C(Nc1nc(-c2ccc(Cl)cc2)cs1)c1ccc(S(=O)(=O)N2CCc3ccccc32)cc1
- CBX7 AlphaScr: 1.1
- CBX7 AlphaScr z-score: 0.51
compound: CCCOc1ccc(N2C(=O)CC(N3CCCCC3)C2=O)cc1 (stereo not given)
- CBX7 AlphaScr: 0.87
- CBX7 AlphaScr z-score: -1.7

The list continues:
SMILES	CBX7 AlphaScr	CBX7 AlphaScr z-score
CC(NC(=O)[C@H](CSCc1ccccc1)N1Cc2ccccc2C1=O)c1cccs1 (stereo not given in full)	0.91	-2.1
CC(C)C(=O)Nc1c(-c2ccc(F)cc2)nc2ccccn12	1.1	2.2
CCOc1ccc(C2C(C(=O)Nc3cc(C)ccn3)=C(C)NC3=C2C(=O)CCC3)cc1 (stereo not given)	1.1	1.3
Cc1nc2c(C(=O)NCCc3ccccc3)cnn2c(C)c1Cc1ccc(Cl)cc1	1	0.54
Cc1nc2ccc(S(=O)(=O)N(C)CC(=O)Nc3nc4c(C)cccc4s3)cc2s1	1.4	2.3
Cc1cc2nc(Nc3nc4c(c(=O)[nH]3)CCCC4)nc(C)c2cc1C	0.97	-0.032
O=C(Nc1c(F)cc(F)cc1Br)c1cc(-c2ccc3c(c2)OCO3)on1	1.1	1.7
COc1cc(OC)c(-c2nc3cnccc3n2C)cc1OC	1.1	0.92
Cc1ccc(C2C(=O)N(C3CCC(C)CC3)CC(=O)N2Cc2ccccc2Cl)cc1 (stereo not given)	0.87	-2.8
Cc1ccc(C)c(NC(=O)C2CCN(c3nn4c(=O)cc(C)nc4s3)CC2)c1	1	1.4
CN1CCN(C(=O)C2CC(c3ccc(F)cc3)=NO2)CC1 (stereo not given)	1.1	2.4
O=C1NC(c2ccc(Cl)cc2)c2c(-c3ccccc3)n[nH]c21 (stereo not given)	0.91	-2.9
O=C(O)c1ccc2c(c1)NC(=O)C(CS(=O)(=O)Cc1cccc(F)c1)N2 (stereo not given)	1.1	1.1
CCOC(=O)c1cnc2c(OC)cccc2c1Nc1cccc(Cl)c1	0.83	-2.9
CC(=O)Nc1nonc1-c1nc2ccccc2n1C	0.87&1	-1.7&0.57

The list goes on (2 carried over from the part before).
SMILES	CBX7 AlphaScr	CBX7 AlphaScr z-score
CCOC(=O)c1cnc2c(OC)cccc2c1Nc1cccc(Cl)c1	0.83	-2.9
CC(=O)Nc1nonc1-c1nc2ccccc2n1C	0.87&1	-1.7&0.57
COc1ccc(-c2nc(CS(=O)(=O)CC(=O)NCc3ccccc3OC)c(C)o2)cc1	0.93	-1.2
CC(C(=O)NCc1cccnc1)N1C(=O)CC(C)(C)Sc2ccccc21 (stereo not given)	0.99	-0.43
c1ccc2[nH]c(-c3ccncc3)nc2c1	1.5	3.8
Cc1cc(Cl)ccc1OCCCC(=O)Nc1ccc(S(=O)(=O)Nc2ncccn2)cc1	0.91	-2.2
CC1(C)CC(=O)N(CC(=O)NCc2cccnc2)c2ccccc2S1	1	0.41
CCCCn1c(CCCNC(=O)c2cccs2)nc2ccccc21	0.97	-0.5
O=C(Nc1nc(-c2ccc(F)cc2)cs1)c1ccc(S(=O)(=O)N2CCOCC2)cc1	0.91	-1.9
CCOC(CNC(=O)c1ccc2c(c1)nc(C)n2-c1ccc(F)cc1F)OCC	1	0.82
Cc1nc2c(C(=O)N3CCCCC3)c[nH]n2c(=O)c1Cc1ccccc1F	1.1	1.1
CCOc1ccc2nc(N3CCC(C(=O)NC(C)C45CC6CC(CC(C6)C4)C5)CC3)sc2c1 (stereo not given)	0.9	-0.14
Cc1ccc(C(C(=O)NC2CCCCC2)N2CCCCC2)cc1 (stereo not given)	1	0.22
Cc1cc(N2CCN(c3ncccn3)CC2)nc2ccc(NC(=O)c3cnccn3)cc12	0.96	-1.9
COc1ccccc1-c1cc2nc(C)c(CCC(=O)NCCCN3CCCC3=O)c(C)n2n1	1	0.16
Cc1cccc(C)c1NC(=O)C1(N2CCC(Cc3ccccc3)CC2)CCCCC1	0.95	-0.96
COc1ccc(Br)cc1CNC(=O)C(C)N1C(=O)COc2ccc(C)cc21 (stereo not given)	0.95	-0.89
O=C(c1ccc2c(c1)N(Cc1ccccc1F)C(=O)c1ccccc1S2)N1CCCCCC1	0.92	-1
CCN1C(=O)c2ccccc2S(=O)c2ccc(C(=O)NC3CC3)cc21 (stereo not given)	1.1	2.1
O=C(Nc1nc(-c2ccc(Oc3ccccc3)cc2)cs1)C1CC1	1	0.16
CCc1ccc(NS(=O)(=O)c2ccc3[nH]cc(C(=O)NCCOC)c(=O)c3c2)cc1	0.87	-1.6
CCCc1ccc(Oc2cn[nH]c2-c2ccc(O)cc2O)cc1	0.77	-3.5
COC(=O)c1ccccc1NC(=O)CCCN1C(=O)CSc2ncccc21	1	0.087
CCCCN(CCCC)S(=O)(=O)c1ccc2oc(C(=O)Nc3cccc(OC)c3)c(C)c2c1	1.1	3.3
CCOC(=O)c1c(C)oc2ccc(O)c(CN3CCCCC3)c12	0.89	-0.42
CCOC(=O)Cn1c(CN2CCN(c3cccc(Cl)c3)CC2)nc2c1c(=O)[nH]c(=O)n2C	0.99	-0.4
c1ccc(COc2ccc(NCCc3ccncc3)cc2)cc1	0.73	-3.3
COc1ccc(C2=NOC(C(=O)N(C)Cc3ccccc3)C2)cc1 (stereo not given)	1	-0.033
Cc1noc(C)c1CSc1ncnc2sc(C)c(C)c12	0.98	-0.031
CN(Cc1ccccc1)C(=O)C(NS(=O)(=O)c1ccc2c(c1)CCC(=O)N2)c1ccccc1 (stereo not given)	0.96	-0.46
COc1ccc(OC)c(NC(=O)c2cnn3cccnc23)c1	0.92	-1.4
CCCN(C(=O)c1cn(CC(C)C)c(=O)c2cc(OC)c(OC)cc12)c1cccc(C)c1	1	0.83

Reformatted with each value named: four of the compounds above
> CCN1C(=O)c2ccccc2S(=O)c2ccc(C(=O)NC3CC3)cc21 (stereo not given)
  CBX7 AlphaScr = 1.1	CBX7 AlphaScr z-score = 2.1
> O=C(Nc1nc(-c2ccc(Oc3ccccc3)cc2)cs1)C1CC1
  CBX7 AlphaScr = 1	CBX7 AlphaScr z-score = 0.16
> CCc1ccc(NS(=O)(=O)c2ccc3[nH]cc(C(=O)NCCOC)c(=O)c3c2)cc1
  CBX7 AlphaScr = 0.87	CBX7 AlphaScr z-score = -1.6
> CCCc1ccc(Oc2cn[nH]c2-c2ccc(O)cc2O)cc1
  CBX7 AlphaScr = 0.77	CBX7 AlphaScr z-score = -3.5

More compounds.
SMILES	CBX7 AlphaScr	CBX7 AlphaScr z-score
COc1ccc(-c2nc(C#N)c(N3CCOCC3)o2)cc1	1&1	0.19&0.55
COc1ccc(-c2cc3nc(C)c(CCC(=O)Nc4ccc(Cl)cc4)c(C)n3n2)c(OC)c1	1	0.049
O=C(NCCN1CCOCC1)c1ccc2c(c1)ncn2-c1ccc(OCc2ccccc2)cc1	0.98	-0.45
CCn1c(=N)n(CCOc2ccc(OC)cc2)c2ccccc21	0.94	-1.7
CCC(C)NC(=O)c1ccc2c(c1)N(Cc1ccc(Cl)cc1)C(=O)c1ccccc1S2=O (stereo not given)	1	0.34
COc1ccc2c(c1)nc(C)n2Cc1ccccc1	0.97	-0.94
Cc1ccccc1NS(=O)(=O)c1ccc2[nH]cc(C(=O)NC3CCCC(C)C3C)c(=O)c2c1 (stereo not given)	0.57	-8.1
Cc1nc2ccc(S(=O)(=O)NC(C(=O)Nc3ccccc3C)C(C)C)cc2s1 (stereo not given)	0.95	-0.95
CCOC(=O)c1ccc2c(c1)nc(C1CCN(S(=O)(=O)c3ccc(C)cc3)CC1)n2C1CCCCC1	0.9	-2.5
CCCc1nn(C)c2c(=O)[nH]c(-c3cc(S(=O)(=O)N4CCN(C)CC4)ccc3OCC)nc12	0.97	-1.1
Cc1cc2ccccc2c(=O)n1CC(=O)NCC(=O)N1CCN(C)CC1	1	0.92
Cc1nnc(NC(=O)CSc2nnc(-c3c[nH]c4ccccc34)n2C)s1	1	0.85
COc1ccc(OC)c(-n2cnc3cc(C(=O)NCCC4=CCCCC4)ccc32)c1	0.79	-2
CCOCCCNC(=O)c1ccc2c(c1)N(Cc1ccccc1C)C(=O)c1ccccc1S2	0.69	-5.9
COc1ccc(CCNC(=O)c2cc(Nc3ccccc3C)nc3ccccc23)cc1OC	1.1	3
CNC(=O)C1CCN(c2nc3c(C)cc(C)cc3s2)CC1	1	-0.052
CCn1c(C(=O)N2CCC(C(=O)N3CCN(c4ccccc4)CC3)CC2)cc2sccc21	0.66	-1.5
O=C(C1CC1)N1CCc2cc(S(=O)(=O)N3CCc4ccccc4C3)ccc21	1	0.51
CCN(C(=O)CCc1nc(-c2ccccc2F)no1)c1cc(OC)ccc1OC	1	-0.098
CCCCN(C)C(=O)C1CCN(c2nnc(-n3cccc3)s2)CC1	0.99	-0.23
CCOC(=O)N1CCN(C(=O)CSc2nnc(CNC(=O)c3cccs3)o2)CC1	1.1	2.8
O=C(CNC(=O)Cn1ccc2ccccc2c1=O)NCc1ccc(F)cc1	1	-0.025
CCOc1ccccc1NC(=O)c1cn(CC)c2nc(C)ccc2c1=O	0.96	-0.41
COc1cccc(C(=O)Nc2nnc(COc3ccccc3Cl)s2)c1	1.1	0.48
Cc1ccc(NC(=O)CN2C(=O)COc3ccc(S(=O)(=O)N4CCOCC4)cc32)cc1Cl	0.94	-1.5
O=C(Nc1ccccc1)Nc1nc(-c2ccc(Cl)cc2Cl)cs1	0.99	-0.16
CCCOc1ccc(C(=O)N(Cc2ccc(CC)cc2)C2CCS(=O)(=O)C2)cc1 (stereo not given)	1	0.0034
CN(C)CCNC(=O)CN1C(=O)COc2ccc(S(=O)(=O)N3CCCC3)cc21	0.98	-0.59
COc1cccc(NC(=O)Cn2cc(S(=O)(=O)c3ccc(C)cc3)c(=O)c3cc(F)ccc32)c1	0.89	-1.6
Cc1ccc(-c2nc3cnccn3c2Nc2c(C)cccc2C)cc1	1	0.17
Brc1ccc(-c2cn3c4ccccc4nc3n2CCN2CCOCC2)cc1	0.87	-2.5
CCOC(=O)c1c(C)n(-c2ccccc2)c2cc(Br)c(OC)cc12	1.1	2.9
CC(=O)Nc1ccc(NC(=O)c2cnn(-c3ccccc3)c2C2CCNCC2)cc1	1	0.018
COc1ccc(OC)c(NC(=O)C2CCCN(S(=O)(=O)c3cccs3)C2)c1 (stereo not given)	0.93	-1.2
CCOc1cc(-c2nc3sc4c(c3c(=O)[nH]2)CCCC4)ccc1OCc1ccccc1Cl	1	0.65
O=C(C1CCN(S(=O)(=O)c2cccc3cccnc23)CC1)N1CCN(c2ccccc2Cl)CC1	0.98	-0.25
COc1ccccc1CNC(=O)C1C2C=CC3(CN(Cc4cccs4)C(=O)C13)O2 (stereo not given)	1.1	1.8
COc1ccc(NC(=O)c2c(C)nn(-c3ccccc3)c2Cl)cc1	1.2	2
CCOC(=O)N1CCC(Nc2c(NCCCN(CC)CC)c(=O)c2=O)CC1	1.1	2
CCOC(=O)c1cnc(Nc2nc3ccccc3o2)nc1-c1ccccc1	1.2	2.1
Cc1cc(C)cc(NC(=O)C2CCN(C(=O)c3cnn(-c4ccccc4)c3-n3cccc3)CC2)c1	1.3	0.66
CCc1ccc(NC(=O)[C@H](CC(C)C)N2Cc3ccccc3C2=O)cc1	1.1	1.7
COC(CNC(=O)c1csc2c1CCCC2)OC	1.2	2.3
Fc1ccc(C(c2ccccc2)N2CCN(CCCc3c[nH]c4ccccc34)CC2)cc1 (stereo not given)	0.51	-11
CCOC(=O)C1CCN(c2cc(C)nc3c(-c4ccc(Cl)cc4)c(C)nn23)CC1	1.5	22
COc1ccc(CNc2oc(COc3ccccc3C)nc2C#N)cc1	0.62	-13
O=C(NCCc1ccccc1)C(=O)Nc1cccc(C(F)(F)F)c1	1	1.2
Cc1ccc(NC(=O)c2c(C)nn(-c3ccccc3)c2Cl)cc1	1.1	0.21
COc1ccc(Br)cc1CN1C(=O)c2ccccc2C1C(=O)NCCc1ccc(OC)c(OC)c1 (stereo not given)	0.86	-2.5
O=C(Nc1ccc(Cl)c(C(F)(F)F)c1)C1(S(=O)(=O)c2ccc(Cl)cc2)CC1	1.2	4.2
Cc1ccc(Cl)cc1N1CCN(c2nc3cccnc3s2)CC1	1	0.54

An excerpt. The share of hits here may be higher or lower than overall.
